VDR inhibitor: blocks the human vitamin D receptor. AID 504847. 0.93% of 400,000 active. Potency, µM, inactives show max response, negative = inhibition, usual class: inhibitors. VDR-SRC2-3 peptide fluorescence polarization, 2 h; active = well fitted inhibition curve with a large enough effect; inconclusive = small, poorly fitted or top-dose-only effect, or another doubt; inactive = no such curve, though single readings can be large or run the other way; also: series mostly up to about 120 µM
Target sequence (P11473 whole entry, looked up): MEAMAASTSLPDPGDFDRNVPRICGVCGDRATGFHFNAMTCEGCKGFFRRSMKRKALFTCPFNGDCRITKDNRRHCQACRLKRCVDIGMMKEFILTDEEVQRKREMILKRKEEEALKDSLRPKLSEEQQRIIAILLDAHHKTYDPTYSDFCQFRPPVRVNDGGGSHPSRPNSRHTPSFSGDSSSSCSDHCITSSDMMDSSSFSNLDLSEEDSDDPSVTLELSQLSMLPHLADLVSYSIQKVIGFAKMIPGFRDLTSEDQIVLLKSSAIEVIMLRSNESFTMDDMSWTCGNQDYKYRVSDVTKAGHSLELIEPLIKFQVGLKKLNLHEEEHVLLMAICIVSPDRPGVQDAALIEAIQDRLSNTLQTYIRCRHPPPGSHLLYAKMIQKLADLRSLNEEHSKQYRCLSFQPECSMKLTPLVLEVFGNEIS
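Fluorescence polarization assay measuring small-molecule disruption of VDR binding to the coregulator peptide SRC2-3. Compounds were pin-transferred (23 nl) into the reagent mix and incubated 2 h at room temperature before reading.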
An asterisk follows results filed as active; ? = inconclusive. % is scaled to controls: 0 for no effect and ±100 for the full control effect; potency is read from the fitted curve at half-maximal effect. The list is partial; rates above refer to the full screens.

SMILES | VDR inhibitor
CCOc1ccc(NC(=S)NC23CN4CN(CN(C4)C2)C3)cc1 | -12%
O=C(NCc1cccnc1)C(=O)C1C(=O)Nc2ccccc21 (centres undefined) | -2%
O=S(=O)(c1cccc(C(F)(F)F)c1)N1CCN(C(=S)NCc2ccco2)CC1 | 5%
CC1CCN(C(=O)c2cc(-c3cccc(Cl)c3)on2)CC1 | -9%
Nc1c(N(CCCO)C(=O)CCCN2C(=O)c3cccc4cccc(c34)C2=O)c(=O)[nH]c(=O)n1Cc1ccccc1 | -19%
CCCCC(=O)Nc1ccc(C(=O)NNC(=S)NC(=O)c2ccco2)cc1 | -19%
O=C(CC(C(=O)O)C1CCCO1)NCc1ccccc1 (centres undefined) | 3%
C=CC[C@@H](CC(=O)N[C@@H](CO)Cc1ccccc1)C(=O)N[C@@H](COC(=O)[C@@H](CC=C)Cc1ccc(F)cc1)Cc1c[nH]c2ccccc12 | -20%
O=C(O)C1CN(c2nc(Cl)ccc2[N+](=O)[O-])C1 | -10%
O=Cc1cc2cc3c(cc2nc1Cl)OCCO3 | 9%
CCOC(=O)Cc1nnc(NC(=O)CSc2ccccc2)s1 | 7%
O=C(NCCc1ccccn1)C1CCCN(S(=O)(=O)Cc2ccccc2)C1 (centres undefined) | -11%
Cc1cc(C)n(-c2cc(C)c(C)cc2Br)n1 | -3%
COc1ccc(-n2nc(C(=O)NCC(=O)Nc3cc(OC)ccc3OC)c3ccccc3c2=O)cc1 | -12%
CN(CC(=O)Nc1ccc(F)c(F)c1F)C(=O)c1ccc(-n2cncn2)cc1 | 11%
CC1=CC(C)(C)Nc2ccc(OC(=O)C(C)N3C(=O)c4ccccc4C3=O)cc21 (centres undefined) | -5%
CCCC(=O)Nc1cc(C(=O)NCc2ccc(OC)cc2)ccc1S(=O)(=O)c1ccc(Cl)cc1 | 19%
COc1ccc(N2CCN(C3CC(=O)NC3=O)CC2)cc1 (centres undefined) | 6%
N/C(=N\OS(=O)(=O)c1ccc(Br)cc1)c1ccncc1 | -14%
CCCC(C)NC(=O)c1cc(Cl)ccc1OC (centres undefined) | -1%

4 records picked at random from the list so far:
SMILES | VDR inhibitor
CN(CC(=O)Nc1ccc(F)c(F)c1F)C(=O)c1ccc(-n2cncn2)cc1 | 11%
COc1ccc(-n2nc(C(=O)NCC(=O)Nc3cc(OC)ccc3OC)c3ccccc3c2=O)cc1 | -12%
CCCC(=O)Nc1cc(C(=O)NCc2ccc(OC)cc2)ccc1S(=O)(=O)c1ccc(Cl)cc1 | 19%
N/C(=N\OS(=O)(=O)c1ccc(Br)cc1)c1ccncc1 | -14%

(more compounds)
SMILES | VDR inhibitor
C/C(=N\Nc1nc2ccccc2s1)c1ccc(Br)s1 | -27%
O=C(N/N=C/c1ccncc1)C1CC1(c1ccccc1)c1ccccc1 (centres undefined) | -3%
Cc1ccc(C)c(S(=O)(=O)N2CCCC2CNC(=O)C(=O)NC2CCCC2)c1 (centres undefined) | 4%
O=C(COC(=O)COc1ccccc1[N+](=O)[O-])NCc1ccc2c(c1)OCO2 | 14%
O=c1c(Cl)c(NCCCO)cnn1-c1nc2ccccc2[nH]1 | -16%
O=S(=O)(Nc1cccnc1Cl)c1ccc(F)cc1 | 7%
Cc1cccc(NC(=S)NCC(c2cccnc2)N(C)C)c1 (centres undefined) | -1%
O=C(NCC1CCCO1)c1cc2ccccc2oc1=O (centres undefined) | -1%
O=S(=O)(c1ccccc1F)N1CCN(CC(O)c2ccccc2)CC1 (centres undefined) | 5%
COc1cc(OC)c(NC(=O)c2csc3c2CCC(C)C3)cc1Cl (centres undefined) | -21%
O=C(OCC(=O)C12CC3CC(CC(C3)C1)C2)c1ccccn1 | -3%
COc1cc2c(cc1OC)C(Cc1ccccc1[N+](=O)[O-])=NCC2 | -9%
COC(=O)c1cc(NC(=O)c2cccnc2)ccc1N1CCOCC1 | -2%
c1ccc2c(c1)[nH]c1nc(SCCN3CCOCC3)nnc12 | -1%
Cc1ccc(C(=O)N2CCN(C)CC2)cc1[N+](=O)[O-] | -11%
O=C(NCCc1c[nH]c2ccccc12)OCCCCOC(=O)NCCc1c[nH]c2ccccc12 | 4%
Cc1ccc(C)c(Cn2nc(C)n3c(cc4cc(C)ccc43)c2=O)c1 | 1%
O=C(O)/C=C\c1cccc(-n2cnnn2)c1 | -15%
O=C(N/N=C\c1cccs1)c1ccccc1-n1cccc1 | -5%
COc1ccc(OC)c(NC(=O)CNC(=O)c2cccs2)c1 | -14%
CN(C)C(CNC(=O)CN1C(=O)NC2(CCCC2)C1=O)c1ccccc1 (centres undefined) | 10%
N/C(=N\OC(=O)Nc1cccc(C(F)(F)F)c1)c1ccno1 | 5%
CC1CCC(NC(=O)c2cc3ccccc3cc2O)CC1 (centres undefined) | -7%
O=c1cc(N2CCN(c3ccccc3)CC2)[nH]c(=O)n1Cc1ccc(F)cc1 | -18%
COC(=O)c1cc(OC)c(OC)cc1NC(=S)Nc1cccc(Cl)c1 | 10%
CCOC(=O)Cc1csc(NC(=O)CSc2nnc(-c3ccc(OC)cc3)n2C)n1 | -4%
Cc1nnc(SC(C)C(=O)Nc2ccc(Cl)cn2)n1Cc1ccccc1 (centres undefined) | -3%
Cn1c(=O)c(=O)n(C)c2cc([N+](=O)[O-])c([N+](=O)[O-])cc21 | -10%
C=CCn1c(NCc2ccco2)nc2ccccc21 | -11%
c1ccc(-c2nnc(CN3CCN(C(c4ccccc4)c4ccccc4)CC3)o2)cc1 | -1%
Cc1cccc(N2CCN(C(=S)c3ccc4c(c3)OCO4)CC2)c1 | 79µM*
CC(c1ccc(F)cc1)n1c(Cn2ncc3ccccc3c2=O)n[nH]c1=S (centres undefined) | -17%
Cc1ccc(C)c(-n2cc(CNCCCn3cccn3)c(-c3ccccc3)n2)c1 | -5%
Cc1ccsc1C1Nc2ccccc2-c2nc3ccccc3n21 (centres undefined) | 3%
CCOc1ccc(C(c2nnnn2C(C)(C)C)N2CCN(C(=O)c3ccco3)CC2)cc1 (centres undefined) | -3%
Cc1ccsc1C(=O)OCC(=O)N1CCN(c2ccccc2)CC1 | 6%
COc1ccc(OC)c(-c2csc(NC(=O)Cc3ccc(OC)c(OC)c3)n2)c1 | 17%
Cc1c(C)c2ccc(OC(C)C(=O)N3CC[C@@]4(O)CCCC[C@H]4C3)cc2oc1=O (some centres undefined) | -11%
CCOc1ccccc1NC(=O)CNC(=O)N1CC(=O)Nc2ccccc21 | -5%
Cc1nn(C)c(C)c1/C=C/C(=O)c1cccs1 | -5%
CCOc1cccc(-c2c(C(=O)N/N=C/c3ccco3)nnn2-c2nonc2N)c1 | -9%
NC(=S)NN=C1CCCC(C(F)(F)F)C1 (centres undefined) | -25%
COc1ccc(OC)c(NC(=O)c2cc3sccc3n2C)c1 | -8%
CC(C)Sc1nsc2nc(=O)c(/C=C3\C=Nc4ccccc43)c(N)n12 | 5%
Cc1ccc(NC(=O)CCNS(=O)(=O)c2ccc3c(c2)oc(=O)n3C)cc1C | -18%
COc1ccc(C(=O)COc2ccccc2C(N)=O)cc1 | -1%
Cc1ccc(S(=O)(=O)CC(=O)NC(C)c2ccccc2)cc1 (centres undefined) | 8%
C[C@H](NC(=O)c1ccco1)C(=O)NNC(=O)COc1cccc(C(F)(F)F)c1 | -13%
COc1ccc(N2CCN(S(=O)(=O)c3ccc(-c4ccno4)cc3OC)CC2)cc1 | 13%
COc1ncc2nc(CCc3ccccc3)c(=O)n(CCc3ccccc3)c2n1 | -23%

Additional entries follow.
SMILES | VDR inhibitor
COc1ccc(NC(=O)CSC2=C(C#N)C(c3ccco3)C3=C(CCCC3=O)N2)c(OC)c1 (centres undefined) | 2%
CCCCC1S/C(=N/N=C/c2cccs2)NC1=O (centres undefined) | 17%
CCOC(=O)CC(=O)COc1nc2cc3c(nc2o1)CCCC3 | -14%
CCOC(=O)c1cnc2cc(-c3ccc(Br)cc3)nn2c1C | -1%
CCOC(=O)Cc1nn(C(C)C)c(=O)c2ccccc12 | -2%
COC(=O)c1cn(NC(=O)c2cnccn2)c(=O)c2ccccc12 | -1%
O=C(NCc1ccc(Cl)cc1)C(=O)Nc1nccs1 | 1%
COc1cccc(/C=N/NC(=O)c2cccc([N+](=O)[O-])c2)c1OS(=O)(=O)c1ccc(C)cc1 | 9%
CCCCNC(=O)/C(=C/c1ccccc1)NC(C)=O | 2%
O=c1[nH]c2cc3c(cc2cc1CN(Cc1cccnc1)C(=S)NCc1ccco1)OCCO3 | -13%

An excerpt from above in order of length of the SMILES, lowest first.
SMILES | VDR inhibitor
CCCCC1S/C(=N/N=C/c2cccs2)NC1=O (centres undefined) | 17%
O=c1[nH]c2cc3c(cc2cc1CN(Cc1cccnc1)C(=S)NCc1ccco1)OCCO3 | -13%
COc1cccc(/C=N/NC(=O)c2cccc([N+](=O)[O-])c2)c1OS(=O)(=O)c1ccc(C)cc1 | 9%

(cont.)
SMILES | VDR inhibitor
CCc1ccc2nc(SCC(=O)N3CC(=O)Nc4ccccc43)c(C#N)cc2c1 | ?
CCOc1ccc(NC(=O)CSc2nnc(NC(=O)Nc3ccccc3)s2)cc1 | 5%
COc1ccc(-n2cc3c(c2-c2cccc(Br)c2)c(=O)n(C)c(=O)n3C)cc1OC | 15%
O=C(COC(=O)c1ccc(S(=O)(=O)N2CCCCCC2)cc1)NCc1ccc(F)cc1 | -7%
CC(C)(C)OC(=O)CNC(=O)c1nc[nH]c1C(=O)N1CCN(c2ccccc2)CC1 | -5%
O=C(Cn1nc(C(F)F)cc1C1CC1)NCCC1=CCCCC1 | -9%
Cc1cccnc1CN1CCN(C(=O)c2cc(COc3ccc4ncccc4c3)on2)CC1 | 5%
O=C(COC(=O)c1n[nH]c2ccccc12)Nc1cccc(S(=O)(=O)N2CCOCC2)c1 | 11%
CCc1cc(=O)oc2cc(C)cc(OC(C)C(=O)NCCCn3ccnc3)c12 (centres undefined) | -29%
CC(C)S(=O)(=O)c1oc(-c2ccc(F)cc2)nc1S(=O)(=O)c1ccc(F)cc1 | ?

4 entries from above in a different format:
> CCc1ccc2nc(SCC(=O)N3CC(=O)Nc4ccccc43)c(C#N)cc2c1
  VDR inhibitor = ?

> CCOc1ccc(NC(=O)CSc2nnc(NC(=O)Nc3ccccc3)s2)cc1
  VDR inhibitor = 5%

> COc1ccc(-n2cc3c(c2-c2cccc(Br)c2)c(=O)n(C)c(=O)n3C)cc1OC
  VDR inhibitor = 15%

> O=C(COC(=O)c1ccc(S(=O)(=O)N2CCCCCC2)cc1)NCc1ccc(F)cc1
  VDR inhibitor = -7%

Next entries.
SMILES | VDR inhibitor
Cc1ccc(NC(=O)CSc2nnc(N)s2)cc1S(=O)(=O)N1CCOCC1 | -5%
COc1ccc(Nc2c(-c3ccc(C)o3)nc3ccccn23)cc1 | 7%
[O-][n+]1c(/C=C/c2ccccc2)ccc2ccccc21 | -15%
Cc1ccc(NC(=O)c2c(C(=O)Nc3ccccc3)sc3nc(C)cc(=O)n23)c(C)c1 | -11%
CCNc1oc(/C=C/c2ccc(OCC)cc2)nc1C#N | -12%
CC1c2[nH]c3ccccc3c2C[C@H]2C(=O)N(CCO)CC(=O)N12 (some centres undefined) | 28%
Cc1ccc2c(c1)cc(C(=O)Nc1ccccc1C)n2C | 1%
CCOC(=O)CSc1nc2ccccc2c(=O)n1CCc1ccc(OC)c(OC)c1 | -2%
O=C(CSc1nc2ncc(Cl)cc2[nH]1)N(Cc1ccccc1)C1CCS(=O)(=O)C1 (centres undefined) | -10%
NC(=O)c1ccc(SCC(=O)OCC(=O)N2CCN(C(=O)c3ccco3)CC2)c([N+](=O)[O-])c1 | -1%
O=C(NC1CCCCC1)c1cccnc1Sc1ccccc1Cl | 3%
O=C(Nc1cccnc1)Nc1ccccn1 | -3%
CCOc1ccc(/C=N/n2cc(-c3ccccc3)[nH]c2=S)cc1 | -17%
COc1ccc2c(C)cc(SCC(=O)Nc3nsc(-c4ccc(C)cc4)n3)nc2c1 | 11%
O=c1cc(-c2ccccc2)[nH]n1-c1ccccc1 | 6%
COc1ccc(Nc2cc3n(c(=O)n2)CCc2cc(OC)c(OC)cc2-3)c(C)c1 | -11%
Cc1ccc(OCCC(=O)OC(C)C(=O)Nc2ccc(Cl)cn2)cc1 (centres undefined) | 0%
CCc1ccc(CN(C)CC(O)COc2cccc3ccccc23)cc1 (centres undefined) | 7%
COc1ccc(C)cc1NC(=O)C1CCN(S(C)(=O)=O)CC1 | 9%
COC(=O)c1cc(C(=O)Nc2cc(C)on2)cc([N+](=O)[O-])c1 | -8%
O=C1N=C(N2CCOCC2)S/C1=C\c1cccs1 | 16%
COc1cc(OC)cc(C(=O)Nc2sc3c(c2C(N)=O)CCC3)c1 | 18%
COc1cc(C(=O)NC(=S)Nc2ccc3c(c2)OCO3)cc(OC)c1OC | -18%
C[C@]12CCC(=O)C=C1CCC1C2C(O)C[C@]2(C)C1CC[C@]2(O)C(=O)CO (some centres undefined) | 0%
CC(C)(C)[C@H]1C=C(C(=O)O)O[C@@H](OCCCCO)C1 | 19%
O=C(CNC1CCCCCC1)c1cccs1 | ?
CCN(C(=O)c1cccs1)c1nc(-c2ccc(OC)cc2)cs1 | 4%
Cc1ccccc1CC1(CO)CCCN(C(=O)c2ccccc2N(C)C)C1 (centres undefined) | -3%
O=C(NCc1ccc2c(c1)OCO2)c1ccc2c(c1)N(Cc1c(F)cccc1Cl)C(=O)c1ccccc1S2 | -8%
COC(=O)Nc1sc(C)nc1-c1ccccc1 | 3%
Cc1cccc(CSc2nnc([C@@H]3CCCN3)o2)c1 | 9%
O=C1Nc2ccccc2C1Cc1ccc(OC(F)(F)F)cc1 (centres undefined) | -10%
COc1cccc(CNC(=O)C(CC(C)C)NS(=O)(=O)c2ccc3c(c2)oc(=O)n3C)c1 (centres undefined) | -13%

Screens deposited in PubChem by National Center for Advancing Translational Sciences (NCATS).
